GALR2 ag – GALR2 (human) receptor agonism. GALR2-expressing cells, agonist activation read-out. activation, %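 (tested at 5 µM)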. O43603. 0.48% of 140,000 active. AID 803;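 active means above mean plus 3 SD of all compounds, about 5% in these data, not always enough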;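 further: 0% = vehicle buffer wells and 100% = reference agonist at full effect; tested in CHO reporter cells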
Target sequence (O43603 whole entry, looked up): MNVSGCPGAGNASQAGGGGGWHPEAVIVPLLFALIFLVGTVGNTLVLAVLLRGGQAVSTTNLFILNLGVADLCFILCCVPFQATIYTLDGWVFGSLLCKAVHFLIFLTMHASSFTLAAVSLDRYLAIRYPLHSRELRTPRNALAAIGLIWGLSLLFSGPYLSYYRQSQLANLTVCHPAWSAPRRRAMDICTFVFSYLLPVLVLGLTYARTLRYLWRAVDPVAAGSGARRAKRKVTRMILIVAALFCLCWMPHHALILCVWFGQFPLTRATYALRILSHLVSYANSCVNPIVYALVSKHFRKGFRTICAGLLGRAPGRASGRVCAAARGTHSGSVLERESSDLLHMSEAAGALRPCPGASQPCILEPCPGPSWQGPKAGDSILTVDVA
PKD1 kinase inh – inhibitors of human PKD1 kinase; PKD1 kinase fluorescence polarization assay; inhibition, %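 (about 10 µM by stock and volumes)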; 0.056% of 200,000 active; AID 797;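 active means inhibition of 50% or more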;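 further: controls were vehicle for no effect and a reference inhibitor for full effect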
Insulin prom inh – TRM-6 insulin promoter activity inhibition; TRM-6 cells (human fetal islet line), insulin promoter-eGFP reporter, imaging; reporter expression induced with tamoxifen; inhibition, % at 2 µM; 0.9% of 130,000 active;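 active means inhibition above the mean plus 3 SD, with well images judged a real hit on visual review, cut at about 60% in these data, passing the limit was not always enough; inconclusive means inhibition over the cutoff but images rejected on review; inactive means inhibition not above the cutoff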
HSV augment – increases HSV replication in cells. HSV replication augmentation in cells, fold increase. AID 1956. maximum fold increase. 0.005% of 220,000 active;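 active means peak rise of 1.5-fold or more in the series; inconclusive means self-fluorescent or not available for retest; tested in PC3 cells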;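 further: first round at 10 µM; read as green reporter fluorescence; hits show the peak of a series up to 25 µM; 1 = signal of infected wells without compound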
RGS16-Gao HTS – RGS16-Galphao interaction regulator (human); O15492+P09471; 0.38% of 220,000 active; bead-based flow cytometry RGS16-Galphao binding, fluorescence; actives lie on both sides; AID 1441; binding response (% of control), % at 10 µM;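 active means below 25% or above 175%, edge rows of some plates excepted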;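 further: Galphao activated by GDP with aluminum fluoride before binding; 100% = wells without compound and 0% = beads without RGS; some results beyond the cut were filed as inactive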
Target sequence (O15492 whole entry, looked up): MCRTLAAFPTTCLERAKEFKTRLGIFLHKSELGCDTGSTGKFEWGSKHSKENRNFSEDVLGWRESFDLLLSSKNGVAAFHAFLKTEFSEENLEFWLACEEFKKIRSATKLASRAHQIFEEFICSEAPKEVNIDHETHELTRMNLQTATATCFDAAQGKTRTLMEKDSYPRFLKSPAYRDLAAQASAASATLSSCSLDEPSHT
Target sequence (P09471 whole entry, looked up): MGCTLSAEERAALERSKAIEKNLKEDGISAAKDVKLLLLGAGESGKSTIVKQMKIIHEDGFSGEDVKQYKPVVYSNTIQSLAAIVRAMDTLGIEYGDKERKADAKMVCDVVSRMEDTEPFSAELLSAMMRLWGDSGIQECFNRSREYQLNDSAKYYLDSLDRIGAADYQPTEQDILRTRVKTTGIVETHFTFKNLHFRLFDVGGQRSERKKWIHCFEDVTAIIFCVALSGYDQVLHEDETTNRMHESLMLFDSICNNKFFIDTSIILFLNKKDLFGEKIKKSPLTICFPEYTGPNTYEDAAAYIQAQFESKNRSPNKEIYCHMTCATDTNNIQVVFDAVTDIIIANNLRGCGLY
Insulin prom inh cell count – second read-out of Insulin prom inh, no call of its own (marks repeat the call); normalized cell count, %; measured here: cell count, toxicity; reference of the scale not given here;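 cells exposed to compound for 48 h; stained nuclei by imaging scaled within each plate; lower means fewer cells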
HSV augment primary fold – further read-out of HSV augment, marked with its call; fold increase; compound at 10 µM; measured here: primary screen fold increase 10 uM; tested in PC3 cells;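 GFP signal in the first replicate; 1 = infected wells without compound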
* = called active by the depositor; i = inactive; ? = inconclusive; . = not tested or not shown.

SMILES | GALR2 ag | PKD1 kinase inh | Insulin prom inh | Insulin prom inh cell count | HSV augment | HSV augment primary fold | RGS16-Gao HTS
COC(=O)Nc1sc2c(c1C(=O)N1CCOCC1)CCC(C)C2 (configuration not stated) | -2.5 | -1 | -25 | 111 | i | 1.1 | 101
Nc1nc(SCC(=O)Nc2ccccc2)[nH]c(=O)c1NC(=O)c1cccs1 | -0.7 | -13 | 20 | 77 | i | 0.93 | 105
CCOc1ccccc1OCC(=O)NN1Cc2ccccc2C1=N | -1.2 | 2 | . | . | i | 1 | 107
O=C(O)c1ccc(CN2C(=O)c3ccccc3S2(=O)=O)cc1 | 2.5 | -3 | 4 | 71 | i | 0.9 | 101
Cc1nc2ccccc2c2c1CC(C(C)(Cl)Br)O2 (configuration not stated) | . | . | . | . | i | 0.94 | 98
Cc1cc2ccccc2n1CCNC(=O)C(C)(C)C | . | -4 | . | . | i | 1.1 | 98
COC(=O)c1cnc(Oc2ccc(NC(=O)NC(=O)c3c(F)cccc3Cl)cc2)cc1C(F)(F)F | . | . | . | . | i | 0.79 | 102
CCCCNC(=O)CNC(=S)N(Cc1ccccc1)Cc1cccnc1 | 0.2 | 0 | . | . | i | 1.1 | 114
Cc1cc(NC(=O)CSc2nnc(CNc3cccc(C(F)(F)F)c3)n2Cc2ccco2)no1 | -3.4 | -16 | . | . | i | 0.71 | 91
COc1cccc(C(=O)Oc2cc(N)n(S(=O)(=O)c3ccc(C)cc3)n2)c1OC | 0.3 | -9 | . | . | i | 0.95 | 99
c1ccc2[nH]c(SCc3cn4cccnc4n3)nc2c1 | -0.6 | 2 | -50 | 102 | i | 0.95 | 103
O=C(Nc1cccnc1)OC1CCCCC1 | . | 5 | 39 | 88 | i | 0.98 | 100
c1ccc2c(c1)CCCn1nnnc1-2 | -2.0 | -2 | 6 | 91 | i | 0.83 | 94
CC1CCN(C(=O)c2ccc(S(=O)(=O)Cc3ccccc3F)c([N+](=O)[O-])c2)CC1 | -0.6 | -3 | -5 | 75 | i | 0.59 | 106
CCCCSc1[nH]c(=O)c(C(=O)OCC)cc1C#N | -4.0 | -4 | -6 | 58 | i | 1.3 | 106
CC(C)NC(=O)NC(=O)COC(=O)/C=C/c1ccccc1[N+](=O)[O-] | . | 4 | 6 | 102 | i | 0.99 | 94
CCCCOc1ccc(C(=O)Nn2c(-c3cccs3)nc3ccccc3c2=O)cc1 | -0.2 | -2 | -10 | 121 | i | 0.83 | 86
COC(=O)c1sc(SC)c(S(=O)(=O)C(C)C)c1N | . | . | . | . | i | 1 | 97
COc1ccc2cc(C(=O)Nc3ccc(Cl)cc3)sc(=O)c2c1OC | 1.0 | -8 | 13 | 121 | i | 0.73 | 98
CCN(CC)C(=O)CSC1c2ccccc2C(=O)N1c1ccccc1 (configuration not stated) | -0.4 | -11 | -12 | 53 | i | 0.99 | 99
O=C1COc2ccc(C(=O)COC(=O)Cc3ccsc3)cc2N1 | . | -10 | . | . | i | 0.93 | 103
CC(=O)c1ccc(N2CCN(C(=O)c3ccc4nc[nH]c4c3)CC2)cc1 | -0.9 | 1 | 43 | 173 | i | 0.99 | 93
COc1ccc(Cc2nc(-c3cccs3)no2)cc1 | . | 9 | 42 | 94 | i | 0.94 | 104
O=C(N/N=C/c1cccc([N+](=O)[O-])c1)C1CC(=O)N(c2ccc(F)cc2)C1 (configuration not stated) | -1.4 | -5 | . | . | i | 1.2 | 106
O=C(NC1=NCCS1)c1ccc(Br)s1 | -2.3 | -6 | 50 | 155 | i | 1 | 102

Reformatted tab-delimited: 7 of the compounds above.
Structure	GALR2 ag	PKD1 kinase inh	Insulin prom inh	Insulin prom inh cell count	HSV augment	HSV augment primary fold	RGS16-Gao HTS
CCCCOc1ccc(C(=O)Nn2c(-c3cccs3)nc3ccccc3c2=O)cc1	-0.2	-2	-10	121	i	0.83	86
COc1ccc(Cc2nc(-c3cccs3)no2)cc1	.	9	42	94	i	0.94	104
COc1cccc(C(=O)Oc2cc(N)n(S(=O)(=O)c3ccc(C)cc3)n2)c1OC	0.3	-9	.	.	i	0.95	99
O=C1COc2ccc(C(=O)COC(=O)Cc3ccsc3)cc2N1	.	-10	.	.	i	0.93	103
COC(=O)c1sc(SC)c(S(=O)(=O)C(C)C)c1N	.	.	.	.	i	1	97
COc1ccc2cc(C(=O)Nc3ccc(Cl)cc3)sc(=O)c2c1OC	1.0	-8	13	121	i	0.73	98
c1ccc2c(c1)CCCn1nnnc1-2	-2.0	-2	6	91	i	0.83	94

Continuation:
SMILES | GALR2 ag | PKD1 kinase inh | Insulin prom inh | Insulin prom inh cell count | HSV augment | HSV augment primary fold | RGS16-Gao HTS
CN(Cc1ncc[nH]1)C(=O)CC1C(=O)NCCN1Cc1c(F)cccc1Cl (configuration not stated) | . | -5 | . | . | i | 1.5 | 96
O=C(NC1CCN(C(=O)Nc2cccc(F)c2)CC1)C1CCCCC1 | -0.8 | -3 | . | . | i | 0.99 | 102
Cc1ccc(S(=O)(=O)N2CCN(C(=O)COc3ccc(-c4nnco4)cc3)CC2)cc1 | -2.8 | 9 | -79 | 49 | i | 0.94 | 113
CCO[C@@H]1OC(C(=O)N2CCN(C)CC2)=C[C@H](c2csc3ccccc23)[C@H]1CCCO | . | 6 | . | . | i | 0.8 | 96
O=C(c1nc2ccccc2s1)N1CCSCC1 | -3.0 | -12 | -32 | 102 | i | 0.99 | 99
COc1nonc1NCn1nc(C)cc1C | 0.1 | -2 | -26 | 84 | i | 0.93 | 102
OCCC1CN(Cc2ccc(Oc3ncccn3)cc2)CCN1Cc1ccc(F)c(F)c1 (configuration not stated) | . | . | . | . | i | 1.1 | 100
Cc1cc(NS(=O)(=O)c2ccc(NC(=O)c3oc4ccccc4c3C)cc2)no1 | -1.9 | 2 | 79* | 104* | i | 1.3 | 93
CC1(C)CC(=O)C(C2=NC3(CCCCC3)Cc3ccccc32)=C(O)C1 | . | 2 | . | . | i | 0.96 | 144
COc1ccc(C2C(C(=O)c3ccco3)=C(O)C(=O)N2CCOCCO)cc1OC (configuration not stated) | -1.7 | -2 | 15 | 91 | i | 1 | 101
COC(=O)C1CCN(C(=O)CSc2nc3ccc(OC)cc3[nH]2)CC1 | . | -1 | . | . | i | 0.85 | 94
CCOC(=O)c1cc2nc(-c3ccco3)cc(C(F)(F)F)n2n1 | -0.1 | -7 | 60 | 140 | i | 0.94 | 102
CC(NC(=O)C(CC(=O)OC(C)(C)C)NC(=O)OC(C)(C)C)C(N)=O (configuration not stated) | -2.3 | 15 | . | . | i | 1.1 | 102
CCCCCCc1cc2cc(C(=O)Nc3ccc(OC)cc3)c(=O)oc2cc1O | -0.7 | -5 | 20 | 123 | i | 0.65 | 99
CSCCC1(C(=O)O)NC(c2ccccc2O)C2C(=O)N(C(C)C)C(=O)C21 (configuration not stated) | -1.6 | 2 | . | . | i | 0.96 | 105
COc1cccc(C(=O)NN2CC(O)=C(c3nc4ccccc4s3)C2=N)c1 | . | 0 | . | . | i | 0.94 | 103
COc1ccc(C(=O)NC2CCN(C(=S)Nc3ccc(C)cc3)CC2)cc1 | . | -6 | . | . | i | 0.97 | 100
Cc1ccc(/C=C\c2nccc3c2[nH]c2ccccc23)cc1 | . | -8 | . | . | i | 0.85 | 99
COc1cccc(CN(CC2CCCO2)C(=O)c2cc3ccccc3oc2=O)c1 (configuration not stated) | . | 5 | . | . | i | 0.96 | 24
O=C(O)c1ccccc1C(=O)N1N=C2/C(=C/c3cccc([N+](=O)[O-])c3)CCCC2C1c1cccc([N+](=O)[O-])c1 (configuration not stated) | . | 5 | 18 | 102 | i | 1.2 | 101
Fc1cccc(F)c1CN1CCN(c2ncccn2)CC1 | -3.2 | 2 | 9 | 112 | i | 0.92 | 102
Cc1ccc(N2C(=O)C3C(C2=O)C2C=CC3C23CC3)c([N+](=O)[O-])c1 (configuration not stated) | . | -3 | -33 | 84 | i | 0.84 | 109
O=S(=O)(c1ccccc1Cl)N1CCCC(c2nc(-c3cccnc3)no2)C1 (configuration not stated) | -0.7 | -5 | -64 | 82 | i | 0.85 | 99
COc1ccc(Cl)cc1NC(=O)CN1CCC(n2nnc3cc(F)ccc32)CC1 | -3.0 | 1 | 37 | 124 | i | 0.82 | 98
CCOC(=O)c1ccc(NC(=O)C(=O)NCc2ccc(/C=C(/C#N)C(=O)NCCOC)o2)cc1 | . | -2 | 7 | 144 | . | . | 105
The list goes on.
SMILES | GALR2 ag | PKD1 kinase inh | Insulin prom inh | Insulin prom inh cell count | HSV augment | HSV augment primary fold | RGS16-Gao HTS
CS(=O)(=O)N(CC(=O)N1CCN(c2ccccc2)CC1)c1cccc(Br)c1 | -0.5 | -4 | . | . | i | 0.81 | 103
Cc1c(NC(=O)C(C)OC(=O)/C=C/c2ccco2)c(=O)n(-c2ccccc2)n1C (configuration not stated) | . | -6 | . | . | i | 1 | 94
CCC(C)C(=O)NCCc1ccc(S(N)(=O)=O)cc1 (configuration not stated) | -0.6 | 3 | 0 | 107 | i | 0.94 | 102
Cc1cc(-n2c(C)cc(C(=O)COC(=O)CN=C3NS(=O)(=O)c4ccccc43)c2C)no1 | -0.9 | -6 | -104 | 119 | i | 0.87 | 104
C=Cn1c(C(=O)O)ccc1-c1ccc(CC)cc1 | . | . | . | . | i | 0.91 | 101
COc1ccc2c(c1)C(=O)N(c1ccc(C)cc1C)C(=O)C2 | -1.3 | -10 | 38 | 60 | i | 1.1 | 105
O=C(CCCOc1ccc(Cl)cc1)NCC1CCCO1 (configuration not stated) | 0.2 | -7 | 3 | 65 | i | 1 | 87
CC1CC(C)CN(CCCOc2ccccc2[N+](=O)[O-])C1 (configuration not stated) | -0.7 | -7 | 7 | 113 | i | 0.89 | 114
CN(CCNC(=O)C1CCN(S(=O)(=O)N2CCOCC2)CC1)CCc1ccccc1 | 0.2 | -1 | -21 | 93 | i | 1 | 97
COC(=O)c1c(NC(=O)C2COc3ccccc3O2)sc2c1CCN(Cc1ccccc1)C2 (configuration not stated) | 1.1 | -2 | . | . | . | . | 106
CCCNc1nc(Nc2ccc(C)cc2)nc(N2CCCC2)n1 | 0.5 | -8 | 35 | 73 | i | 0.71 | 100
COc1cc(NC(=O)COC(=O)CSc2cc(C)ccc2C)c(C)cc1[N+](=O)[O-] | -0.6 | 6 | . | . | i | 1.1 | 107
O=[N+]([O-])c1cc(S(=O)(=O)/N=C(/c2ccccc2)N2CCOCC2)ccc1Cl | . | -5 | 21 | 147 | i | 0.9 | 99
CC(C)CN(C(=O)COC(=O)Cc1c[nH]c2ccccc12)C1CCS(=O)(=O)C1 (configuration not stated) | -1.8 | 8 | . | . | i | 0.84 | 102
CC(=O)Cc1cc(O)c2ccccc2c1OC(=O)c1ccc(Br)cc1 | . | . | . | . | ? | . | 100
Cc1ccc(C)n1-n1cnc2sc(-c3ccccc3)cc2c1=O | -0.6 | -6 | 0 | 139 | i | 1.2 | 101
O=C(NNS(=O)(=O)c1ccccc1)c1cc2cc3ccccc3nc2s1 | 0.0 | 13 | 38 | 111 | i | 1.1 | 111
CCc1ccc2[nH]c(=O)c(CN(Cc3ccccc3OC)C(=O)Nc3ccccc3OC)cc2c1 | -0.9 | -5 | 11 | 131 | i | 0.84 | 99
Cc1ccc(/C=C2/SC(=S)N(c3ccc(S(=O)(=O)Nc4nccs4)cc3)C2=O)cc1 | . | . | . | . | i | 1.1 | 102
O=C(O)CN1C(=O)/C(=C/c2ccsc2)SC1=S | . | 2 | . | . | i | 1 | 134
CSc1nc(-c2ccccc2)cc(C(F)(F)F)c1C#N | -1.5 | 6 | -29 | 85 | i | 1 | 107
CCOC(=O)C1=C(C)N(C)C(=O)NC1c1c(C)nn(-c2ccccc2)c1C (configuration not stated) | -3.5 | -8 | -4 | 29 | i | 0.89 | 102
Cc1ccc(OCc2nnc(SCC(=O)NCc3ccccc3)n2C)cc1 | -2.0 | -4 | . | . | i | 1 | 97
CN(Cc1ccc(O)cc1)C1CCCCC1 | 0.1 | 7 | 92* | 56* | i | 0.98 | 104
CC(=O)Nc1ccc(NC(=O)c2cccc(C(=O)OC(C)C)n2)cc1 | 0.8 | 13 | 50 | 180 | i | 0.94 | 102
Cc1cc2nccc(-c3ccncc3)n2n1 | . | -7 | . | . | i | 1 | 100
Cc1ccc(S(=O)(=O)N2c3cc(C)ccc3OCC2C(C)(C)C)cc1 (configuration not stated) | -1.3 | 2 | . | . | i | 0.74 | 143

Bioassay records: PubChem, several laboratories
